Sa growth 42C: blocks Staphylococcus aureus growth | S. aureus RN4220 growth, OD600, 20 h, 42 °C; stronger effect = lower value | relative growth, % (test concentration not listed) | actives 0.53% (n = 170,000) | AID 720641;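 active = growth at 42 °C up to 50% and 20 or more points under that at 30 °C, or under 10% at both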;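 note: 300 nL library stock went into each well; scaled to the means of positive and negative controls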
HCMV UL50-53 inh: cytomegalovirus nuclear egress complex inhibition; inhibition, % (concentration not given with the values); AID 1918969; actives 0.15% (n = 190,000); HTRF UL50-UL53 interaction, normalized percent inhibition;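 active = both replicates at 50% or more, plus weaker picks with an unusually low signal ratio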;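 note: stock transfer was 100 nL into about 20 µL; 0% = negative control wells and 100% = wells with untagged competitor protein; inactives centre near -12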
GIV Gai3 FP: inhibitors of GIV GBA-motif binding to rat Galpha-i3. P08753. Galpha-i3/FITC-GIV peptide fluorescence polarization, 90 min; stronger effect = lower value; scaled: aluminum fluoride 0%, vehicle 100%. percent of control (FP), % (test concentration not listed). actives 0.42% (n = 210,000). AID 1224905;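 active = replicate mean at 85% of control or lower, very high polarization wells dropped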;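 note: wells of about 15 µL received 100 nL stock; the first replicate is given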
Target sequence (P08753 whole entry, looked up): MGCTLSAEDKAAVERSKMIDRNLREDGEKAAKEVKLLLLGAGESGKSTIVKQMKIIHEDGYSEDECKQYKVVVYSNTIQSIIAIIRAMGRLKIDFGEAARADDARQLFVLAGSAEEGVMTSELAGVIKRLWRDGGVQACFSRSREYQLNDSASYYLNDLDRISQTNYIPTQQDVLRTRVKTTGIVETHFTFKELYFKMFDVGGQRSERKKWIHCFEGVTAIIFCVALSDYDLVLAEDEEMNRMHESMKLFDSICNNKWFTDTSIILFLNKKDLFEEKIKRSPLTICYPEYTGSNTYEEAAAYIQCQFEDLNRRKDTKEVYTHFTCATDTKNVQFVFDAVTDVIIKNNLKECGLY
Sa growth 42C second temp: further read-out of Sa growth 42C, marked with its call; relative growth, %; measured here: growth at 30 °C;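 optical density after 20 h as mean of two plates; 100% = untreated growth and lower means inhibition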
* marks the source's active call; other numbers are inactive results; . = no result given; & = joins results of further samples.

entry | SMILES | Sa growth 42C | Sa growth 42C second temp | HCMV UL50-53 inh | GIV Gai3 FP
1 | Cc1nnc(N2CCC(C(=O)Nc3ccccc3F)CC2)c2nn(-c3ccc(Cl)cc3)c(C)c12 | . | . | 6.7 | 102.9
2 | CCOC(=O)c1sc(N=NC2=C(O)CCCC2=O)c(C(=O)OCC)c1C | 74.3 | 88.0 | -31.1 | .
3 | CSc1ccc(-c2noc(CSc3ccc(-c4ccccc4)nn3)n2)cc1 | . | . | -17.2 | 104.1
4 | COC(=O)c1ccc(NC(=O)CN(Cc2ccccc2)S(=O)(=O)c2ccc(OC)cc2)cc1 | 95.0 | 89.2 | 2.7 | 103.8
5 | S=C1NC2(CCCC2)N=C1c1ccccc1 | 87.5 | 86.7 | . | 102.5
6 | CC1CCc2cc(F)ccc2N1C(=O)Cn1cc(C#N)c2ccccc21 (stereo not drawn) | 81.4 | 85.0 | -41.2 | .
7 | CC(=O)Oc1ccccc1C(=O)N(C(C)C)C(C)C | 95.7 | 98.0 | 34.7 | 107.8
8 | COC(=O)N/N=C1/C(=O)c2cccc3cccc1c23 | 102.1 | 77.9 | -116.4 | .
9 | COc1ccc(OCc2nc(CCN(C)C(=O)C3CCCCC3)no2)cc1 | . | . | -16.2 | 103.1
10 | CCCC(=O)NC1=C(C#N)C2(CCCC2)Cc2ccccc21 | 113.9 | 105.6 | -40.9 | 98.1
11 | CC(=O)N(CCc1c(C)[nH]c2ccccc12)C(C(=O)Nc1c(C)cccc1C)c1ccc(Cl)cc1 (stereo not drawn) | 100.7 | 89.9 | -15.9 | .
12 | CSc1nsc(SC)c1C(=O)NC(=O)Nc1ccc(Cl)cc1 | 106.2 | 90.5 | -27.9 | 102.7
13 | CCOc1ccc(CCNC(=O)c2ccc3c(c2)sc2nc(-c4ccc(F)cc4)cn23)cc1OCC | 96.4 | 55.7 | 4.7&-39.1 | 94.6&102.3
14 | CN(C)C(=O)c1ccc(-n2cnc3ccccc3c2=O)cc1 | 104.8 | 96.7 | -4.1 | 102.1
15 | CN(C)/C=N/c1cnc(C(=O)c2ccc(Cl)cc2)n1C | 94.8 | 83.4 | -53.3 | .
16 | CC1=C(C(=O)Nc2ccc(Br)cn2)C(c2ccc(Cl)cc2)C2=C(CCCC2=O)N1 (stereo not drawn) | . | . | -14.6 | 104.0
17 | CC(C)[C@H](N)c1nnc(SCC(=O)N(C)C)o1 | 100.1 | 86.8 | -20.4 | 106.4
18 | O=C(O)Cc1nnn(C23CC4CC(CC(C4)C2)C3)n1 | 93.3 | 90.4 | -10.3 | 101.5
19 | CCOc1ccc(C(=O)c2nc3ccccc3s2)cc1 | 93.8 | 90.0 | -20.1 | .
20 | CC12CN3CC(C)(CN(C1)C(=O)c1ccccc1C3=O)C2=O | 91.6 | 89.2 | -14.7 | 103.0
21 | CCCCCOC(=O)C1=C(C)NC(=O)NC1c1ccc(OC)c(Br)c1 (stereo not drawn) | . | . | -9.0 | 107.0
22 | NCCCc1nc2cc3sc(CCCN)nc3cc2s1 | 105.9 | 86.4 | 4.9 | .
23 | Cc1c(C)n(-c2ccccc2)c2ncn(CCC(=O)NC(C)C)c(=O)c12 | . | . | -1.6 | 106.2
24 | CC1=NS(=O)(=O)c2cc(Cl)ccc2N1 | 91.9&106.3&92.7 | 100.0&104.4&90.2 | -44.6&-31.2&-7.3&-2.0&2.4&7.2&-2.8 | 102.2&103.9
25 | CC(NC1CC(=O)N(C)C1=O)c1ccccc1 (stereo not drawn) | 105.7 | 102.4 | 0.7 | 109.1
26 | CCOc1ccc(C(=O)CCC(=O)N2CCN(C(=O)C3CC3)CC2)cc1 | 104.0 | 93.9 | -0.6 | .
27 | CCN(CC)CCCNC(=O)c1ccc2c(c1)NC(=O)C(CS(=O)(=O)Cc1cccc(Br)c1)N2 (stereo not drawn) | 129.9 | 98.7 | . | 110.4
28 | CCc1nn2c(=O)c(S(=O)(=O)Nc3ccc(Cl)cc3)c(C)nc2s1 | 98.4 | 75.9 | 3.5 | 108.0
29 | COc1ccc(C2CC(=O)C3=C(C2)Nc2ccccc2N(C(C)=O)C3c2ccc(OC)c(OC)c2)cc1 (stereo not drawn) | . | . | -18.6 | 102.4
30 | CCC(=O)Nc1c(C)n[nH]c1C | 87.1 | 94.3 | -1.9 | 100.6
31 | O=C(Cn1c(COc2ccccc2)nc2ccccc21)NC1=NCCS1 | 91.1 | 95.1 | -15.3 | .
32 | COc1ccc(NC(=O)c2cc(C3CC3)nc3c2c(C)nn3-c2ccccc2)cc1 | 114.1 | 84.6 | . | 104.0
33 | O=S(=O)(Nc1nc2ccccc2nc1Nc1ccc2nsnc2c1)c1ccccc1 | 85.7 | 78.5 | -26.3 | .
34 | O=C(OCc1ccccc1)N1CCc2ccccc21 | 113.0 | 83.9 | -35.7 | 105.4
35 | CC(OC(=O)c1ncc(Cl)c(Cl)c1Cl)C(=O)N1CCOCC1 (stereo not drawn) | 80.2 | 82.9 | -15.2 | .
36 | O=C(c1cc2ccccc2o1)N1CCCC(c2nc3ccccc3s2)C1 (stereo not drawn) | 89.9 | 87.2 | 9.6 | .
37 | COc1ccc(-c2cc(-c3ccccc3)n[nH]2)cc1 | 101.4 | 84.2 | -10.9 | .
38 | COc1cc(C(=O)OCC(=O)N(C)C2CCS(=O)(=O)C2)ccc1OCc1c(C)noc1C (stereo not drawn) | 98.4 | 100.2 | 3.8 | .
39 | O=C(OC(c1ccccc1)c1ccccc1)c1ccncc1 | 99.5 | 79.8 | -3.7 | .
40 | Cc1cc(NCC(c2ccccc2)N(C)C)nc2ccccc12 (stereo not drawn) | 108.6 | 89.4 | -5.1 | .

Reformatted: entries from further up
The line under a structure holds: Sa growth 42C | Sa growth 42C second temp | HCMV UL50-53 inh | GIV Gai3 FP
[39] O=C(OC(c1ccccc1)c1ccccc1)c1ccncc1
  99.5 | 79.8 | -3.7 | .
[40] Cc1cc(NCC(c2ccccc2)N(C)C)nc2ccccc12 (stereo not drawn)
  108.6 | 89.4 | -5.1 | .

Next structures:
entry | SMILES | Sa growth 42C | Sa growth 42C second temp | HCMV UL50-53 inh | GIV Gai3 FP
41 | COc1ccc(C2CC(=O)C3=C(C2)Nc2onc(C)c2C3c2cccnc2)cc1OC (stereo not drawn) | . | . | -13.8 | 102.8
42 | COc1ccc(CCNC(=O)c2ccc3nc(N4CCOCC4)sc3c2)cc1OC | 80.8 | 67.0 | 5.1 | 101.8
43 | CC(C)c1ccc(NC(=O)CSc2ncn[nH]2)cc1 | 94.2 | 85.9 | -40.3 | .
44 | COc1ccc(CN2C(=O)CNC2=O)cc1 | 89.5 | 81.9 | -45.9 | 102.4
45 | NC(=O)CSc1n[nH]c(COc2ccc(Cl)cc2)n1 | 82.8 | 89.2 | -4.1 | .
46 | O=C(O)[C@@H]1CCCN1C(=O)COc1ccc2c3c(c(=O)oc2c1)CCC3 | . | . | -43.6 | 95.5
47 | Clc1ccc2nc(NCc3ccccc3)c3nncn3c2c1 | 98.7 | 89.8 | -12.1 | 101.4
48 | O=C(O)c1ccc(CNCCc2ccccc2)s1 | 106.4 | 98.6 | . | 99.1
49 | O=C(O)CSc1ccc(Oc2ccc(SCC(=O)O)cc2)cc1 | 82.8 | 95.0 | -1.0 | 99.3
50 | COc1ccc(CCCc2n[nH]c(=S)o2)cc1 | 116.5 | 90.5 | . | 98.3

Another view of some results above:
Each structure is followed by: Sa growth 42C	Sa growth 42C second temp	HCMV UL50-53 inh	GIV Gai3 FP
45: NC(=O)CSc1n[nH]c(COc2ccc(Cl)cc2)n1
 : 82.8	89.2	-4.1	.
46: O=C(O)[C@@H]1CCCN1C(=O)COc1ccc2c3c(c(=O)oc2c1)CCC3
 : .	.	-43.6	95.5

(next part)
entry | SMILES | Sa growth 42C | Sa growth 42C second temp | HCMV UL50-53 inh | GIV Gai3 FP
51 | CCOc1ccc(-n2c(-c3ccc(OC)cc3)c[n+]3c2CCCCC3)cc1 | 77.7 | 61.3 | . | 107.3
52 | O=C1CCCCC1Oc1cc(O)c2c(=O)cc(-c3ccccc3)oc2c1 (stereo not drawn) | . | . | -16.1 | 99.3
53 | CCc1ccc(NC2CC(=O)N(c3ccccc3)C2=O)cc1 (stereo not drawn) | 107.9 | 105.5 | -6.3 | 99.7
54 | COc1ccc(NC(=O)c2oc3c(c2C)-c2nn(Cc4ccccc4Cl)cc2CC3)cc1OC | 117.7 | 106.7 | -3.0 | 102.1
55 | CCn1c(C)nc2cc(S(N)(=O)=O)ccc21 | 94.6 | 91.2 | -19.0 | 101.0
56 | CC(C)C1Cc2c(sc3c2c(=O)n(CCc2ccccc2)c2n[nH]c(=S)n32)CO1 (stereo not drawn) | 101.9 | 94.1 | 2.8 | 104.3
57 | CCC(C)C(C(=O)Nc1ccc(N2CCOCC2)cc1N1CCOCC1)c1ccccc1 (stereo not drawn) | 103.6 | 90.4 | 3.4 | .
58 | O=C(NC(=S)Nc1ccc(-c2nc3ccccc3o2)cc1)c1ccc(F)cc1 | 97.4 | 93.6 | . | 109.2
59 | Cc1oc(-c2ccc(C(=O)N3CCCC3)cc2)nc1CS(=O)(=O)c1ccccc1 | 100.5 | 84.7 | -17.8 | 96.3
60 | CN(C)S(=O)(=O)c1cccc(COC(=O)c2nn(C)c(=O)c3ccccc23)c1 | 88.9 | 91.2 | -3.4 | .
61 | Cc1ccc2oc(C(=O)Nc3cccnc3)cc(=O)c2c1 | . | . | -55.5 | 97.9
62 | O=C(CNS(=O)(=O)c1ccc(Br)s1)N1CCN(c2ccccc2F)CC1 | 107.9 | 86.0 | -4.9 | 105.8
63 | CCc1c(C)nc2ncnn2c1Sc1ccccc1NC(=O)Nc1ccc(OC)cc1 | . | . | -1.5 | 100.9
64 | COc1ccc(C)cc1-n1c(-c2ccc(C)cc2)cc2c1CC(C)(C)CC2=O | 100.4 | 92.7 | 8.9 | 103.3
65 | CN(C)c1nc(N(C)C)nc(N(C)C#N)n1 | 93.7 | 104.3 | 12.9 | 108.9
66 | Cc1nc(N2CCC(C(=O)NC3CCS(=O)(=O)C3)CC2)c2c(C)c(C)oc2n1 (stereo not drawn) | . | . | -20.5 | 101.6
67 | COCCn1nnnc1C(CC(C)C)N1CCN(c2cc(Cl)ccc2C)CC1 (stereo not drawn) | 97.8 | 75.0 | -20.7 | 102.8
68 | COc1ccc2c(c1)cc1n2CCN=C1NN | 105.3 | 84.9 | -55.6 | 104.8
69 | CCN(CC)CCn1c(NC(=O)COc2c(F)c(F)cc(F)c2F)nc2ccccc21 | . | . | -27.3 | 104.3
70 | Cc1noc(C)c1C(=O)N1CCN(C(=O)c2sc3cc(Cl)ccc3c2Cl)CC1 | 117.5 | 102.0 | -2.5 | 110.4
71 | COc1ccc(Cc2nnc3sc(COc4ccc(OC)cc4)nn23)cc1 | . | . | -21.8 | 112.3
72 | O=C1CC(NC2CC2)C(=O)N1c1ccccc1 (stereo not drawn) | 83.6 | 84.8 | -23.3 | 102.3
73 | O=C(CSc1ncnc2nc(N3CCSCC3)sc12)Nc1ccc2c(c1)OCCO2 | . | . | -21.9 | 101.5
74 | O=C(NC1CC(=O)N(c2ccc(F)cc2)C1)C1CCCCC1 (stereo not drawn) | 114.6 | 86.0 | . | 98.0
75 | C=CCC1Cc2ccccc2C(C)N1 (stereo not drawn) | 106.2 | 92.4 | -0.6 | 102.5
76 | Cc1ccc(NS(=O)(=O)c2cccc(C(=O)OC3CCOC3=O)c2)cc1 (stereo not drawn) | 87.9 | 90.6 | -28.8 | .
77 | CNC(=O)Cc1ccc(-n2c(=O)c3ccccc3n(CC(=O)NC(C)C)c2=O)cc1 | . | . | -10.3 | 107.7
78 | CC(CC(=O)Nc1ccccc1)n1cccn1 (stereo not drawn) | 89.7 | 85.1 | -33.4 | 99.2
79 | COc1ccc(S(=O)(=O)Nc2ccc3oc4c(c3c2)CCCC4)cc1 | 77.2 | 84.0 | -26.1 | 106.7
80 | Cc1n[nH]c(=O)nc1SCC(=O)Nc1ccc(C(C)(C)C)cc1 | . | . | -6.6 | 99.3
81 | Clc1ccc2cn[nH]c2c1 | 96.3 | 77.4 | -0.9 | 97.5
82 | O=C(O)COCC1COc2ccccc2O1 (stereo not drawn) | 88.6 | 98.1 | -8.8 | 98.4
83 | CC(=O)c1cc2c(cc1N/C(=N/S(=O)(=O)c1ccc(C)cc1)c1ccc(Cl)cc1)OCO2 | 92.7 | 97.2 | . | 99.4
84 | Cc1nn(CCC(=O)Nc2cccc(C#N)c2)c(C)c1S(=O)(=O)N1CCC(C)CC1 | 95.0 | 79.3 | . | 100.5
85 | COC(=O)C[n+]1ccc(C)cc1 | 128.5 | 100.3 | 1.0 | 99.0
86 | O=C(OCCOc1ccc(Br)cc1)c1cccs1 | 86.4 | 103.2 | -16.9 | .
87 | Cc1cc2c(cc1S(=O)(=O)N1CCCC(C(=O)N3CCC(N(C)C(C)C)CC3)C1)OCC(=O)N2 (stereo not drawn) | . | . | -9.9 | 100.2

2 compounds picked at random from the list so far, as already listed:
entry | SMILES | Sa growth 42C | Sa growth 42C second temp | HCMV UL50-53 inh | GIV Gai3 FP
72 | O=C1CC(NC2CC2)C(=O)N1c1ccccc1 (stereo not drawn) | 83.6 | 84.8 | -23.3 | 102.3
22 | NCCCc1nc2cc3sc(CCCN)nc3cc2s1 | 105.9 | 86.4 | 4.9 | .

Look-ups from above.
In HCMV UL50-53 inh, no. 1 has 6.7
In Sa growth 42C second temp, no. 43 has 85.9
In HCMV UL50-53 inh, no. 64 has 8.9

Compound activity deposited in PubChem BioAssay by ICCB-Longwood Screening Facility, Harvard Medical School.
